Screening results (PubChem BioAssay)
UCH37 DUB inh: blocks the human deubiquitinase UCH37. Q9Y5K5. purified proteasome/UCH37, Ub-AMC cleavage fluorescence. AID 588478. inhibition, % (no concentration beside the values). 0.33% of 330,000 active;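 active means mean of two replicates above 20%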;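 further: 0% = compound-free wells with enzyme and 100% = wells lacking proteasome; stock transfer was 100 nL into about 20 µL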
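System: Proteasome-associated human UCH37 deubiquitinase; Input: 0.15 nM proteasome in added enzyme buffer; Also added: Ub-AMC substrate from 1 µM stock; Incubation: 30 min compound-proteasome preincubation then 25 min substrate reaction, room temperature; Detection: fluorescence, ex 355 nm, em 460 nm; Read-out: % inhibition of Ub-AMC cleavage fluorescence; Benchmarks: no-proteasome and no-compound wells.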
Calb FLC: C. albicans growth modulation with fluconazole | C. albicans CaCi-2 (fluconazole-resistant clinical isolate) + fluconazole, Alamar Blue growth, 48 h | 0.57% of 300,000 active | AID 1979 | growth inhibition, % (concentration not given with the values);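 active means most replicates above 75%; inconclusive means exactly half above 75%; inactive means most below 75%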;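 further: all wells also contain fluconazole at 8 µg/ml as a sub-toxic cotreatment; 0% = median of DMSO wells and 100% = median of geldanamycin control wells; wells of about 8 µL received 7.5 nL stock; the first replicate is given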
T cruzi inh: T. cruzi replication inhibition. T. cruzi beta-gal in NIH3T3, luminescence, 90 h. inhibition, % (no concentration beside the values). 1.4% of 300,000 active;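 active means mean inhibition across valid replicates above about 55%, limit read from the data; inconclusive means mean below that limit but half or more replicates reach it; inactive means mean below it, under half of replicates reach it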;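 further: signal also drops with host cell toxicity which is not excluded here; 0% = plate median of DMSO wells and 100% = zero luminescence signal; higher percent means less beta-gal luminescence so fewer parasites; stock transfer was 50 nL into about 50 µL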
Beta apoptosis: beta cell apoptosis inhibition; 0.8% of 300,000 active; protection from apoptosis, % (no concentration beside the values); INS-1E cytokine-induced death, ATP luminescence, 48 h; percent of positive-control rescue, neutral wells zero;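 active means all replicates at 75% or more, or half of them and the mean; inconclusive means half reach 75% but not the mean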;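 further: 0% = cytokine-treated negative control wells and 100% = positive control rescue; higher means more ATP so stronger rescue from cytokine killing; wells of about 40 µL received 100 nL stock; the first replicate is given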
RanGTP-Impb inh: inhibitors of RanGTP-importin-beta interaction, primary screen, biochemical, FRET, CFP-Ran, YFP-importin-beta, homogeneous; cell-free CFP-Ran/YFP-importin-beta FRET ratio; inhibition, % (test concentration not listed); 1.1% of 300,000 active; AID 2216;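 active means most replicates above 15%; inconclusive means exactly half above 15%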;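 further: 0% = DMSO wells and 100% = Ran loaded with GDP instead of GTP; wells of about 40 µL received 100 nL stock; the first replicate is given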
Bfl-1 A1 inh: inhibitors of the anti-apoptotic protein A1, read as caspase activation. 0.066% of 330,000 active. caspase activation, % (no concentration beside the values). MEF A1-2A-BIM cells, Caspase-Glo 3/7 luminescence, 3 h; percent of clofoctol response, vehicle zero. AID 2462;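 active means over half of replicate activation scores above 10%, or exactly half above 10 with the replicate mean above 10; inconclusive means replicate mean below 10 yet half the replicates above 10; inactive means over half of replicates below 10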;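 further: wells of about 30 µL received 50 nL stock; many hits fall short of the cut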
LANA-H2B inh: blocks KSHV LANA binding to histone H2A/H2B; Q9QR71; cell-free LANA-H2A/H2B peptide, fluorescence polarization; inhibition, % (no concentration beside the values); 0.6% of 320,000 active; AID 2629; in the data active means inhibition mostly above about 10%, no sharp cut-off; inactive means mostly below about 6.7%;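 further: stock transfer was 7.5 nL into about 10 µL; 0% = median of vehicle wells and 100% = median of positive control wells; one replicate is shown; the record names a cut of 25% in any replicate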
Target sequence (Q9QR71 whole entry, looked up): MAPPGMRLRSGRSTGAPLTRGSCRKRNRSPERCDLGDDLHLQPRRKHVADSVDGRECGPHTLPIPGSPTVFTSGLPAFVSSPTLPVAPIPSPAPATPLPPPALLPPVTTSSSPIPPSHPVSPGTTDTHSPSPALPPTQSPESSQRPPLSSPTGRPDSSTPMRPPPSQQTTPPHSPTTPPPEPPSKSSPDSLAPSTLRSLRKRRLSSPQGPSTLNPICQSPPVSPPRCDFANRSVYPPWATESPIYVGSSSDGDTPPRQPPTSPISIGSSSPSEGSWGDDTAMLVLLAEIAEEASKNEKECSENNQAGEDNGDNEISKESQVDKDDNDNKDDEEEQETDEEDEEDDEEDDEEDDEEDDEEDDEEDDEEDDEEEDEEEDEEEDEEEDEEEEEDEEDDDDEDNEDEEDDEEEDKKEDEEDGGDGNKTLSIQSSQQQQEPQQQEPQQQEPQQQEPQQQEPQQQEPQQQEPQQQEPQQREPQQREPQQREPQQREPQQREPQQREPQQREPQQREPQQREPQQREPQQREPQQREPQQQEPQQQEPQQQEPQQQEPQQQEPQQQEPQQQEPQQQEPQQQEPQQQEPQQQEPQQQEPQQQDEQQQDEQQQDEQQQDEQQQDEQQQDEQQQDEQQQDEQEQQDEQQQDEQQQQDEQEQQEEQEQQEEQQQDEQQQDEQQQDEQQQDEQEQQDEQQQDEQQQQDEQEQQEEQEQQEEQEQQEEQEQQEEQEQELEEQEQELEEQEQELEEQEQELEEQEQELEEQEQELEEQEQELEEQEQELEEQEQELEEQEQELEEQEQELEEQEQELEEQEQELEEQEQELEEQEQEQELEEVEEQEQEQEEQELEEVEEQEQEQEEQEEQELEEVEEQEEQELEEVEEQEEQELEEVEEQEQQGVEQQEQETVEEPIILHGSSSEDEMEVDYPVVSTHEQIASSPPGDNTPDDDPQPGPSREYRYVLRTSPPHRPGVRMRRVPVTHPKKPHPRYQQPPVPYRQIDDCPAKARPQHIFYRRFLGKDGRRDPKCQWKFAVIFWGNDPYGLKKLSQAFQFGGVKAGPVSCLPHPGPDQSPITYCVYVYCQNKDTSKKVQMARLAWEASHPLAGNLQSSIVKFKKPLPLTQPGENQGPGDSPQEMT
Beta2AR agonist: activates human beta-2 adrenergic receptor causing internalization. P07550. response, % (test concentration not listed). 0.43% of 340,000 active. Am2.2-beta2AR cells, FAP receptor internalization, flow cytometry; reference of the scale not given here;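 active means response above a set limit, near 3 SD of response in nonfluorescent compounds, cut at about 42% in these data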;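 further: stock transfer was 100 nL into about 11 µL; a reference agonist was the positive control; negative values mostly stem from fluorescent compounds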
Numbers without * were called inactive; i = inactive; ? = inconclusive; . = no result given; & = joins results of further samples.

Order of results – UCH37 DUB inh	Calb FLC	T cruzi inh	Beta apoptosis	RanGTP-Impb inh	Bfl-1 A1 inh	LANA-H2B inh	Beta2AR agonist
> Cc1n[nH]c(=S)n1/N=C/c1ccc(Br)o1
  .	-5.7	8.1	-3.3	-3.0	0.4	4.1	-2.4
> COc1ccc(CNC(=O)C2CCC(CNc3c(N4CCOCC4)c(=O)c3=O)CC2)cc1 (stereo unspecified)
  0.9&0.4	-5.7	-1.6	-7.0	-1.8	-0.5	-0.7	-4.0&1.6
> COc1ccc(S(=O)(=O)NC(C)C(=O)N2CCCC2)cc1C (stereo unspecified)
  3.7	-6.6	-18.4	.	-2.5	-0.2	-1.6	-7.0
> CCN(CC)CCNC(=O)C(=O)NCC1OCCN1S(=O)(=O)c1ccc([N+](=O)[O-])cc1 (stereo unspecified)
  1.2	7.6	35.1	-8.9	2.0	0.1	-1.6	1.2
> COc1cccc(CNC(=O)Cn2ccc3cc(S(=O)(=O)N4CCCCCC4)ccc32)c1
  -0.2	-6.0	2.0	-0.2	4.5	-0.6	-2.1	1.8
> COC(=O)c1c(CSc2ccc(Cl)cc2)noc1C(=O)NCc1ccco1
  1.1	-5.8	-3.9	-2.7	-3.0	0.5	3.5	-1.8
> O=C(CSc1ncnc2c1oc1ccccc12)Nc1ccccc1C(F)(F)F
  1.3	-0.1	-6.5	.	-3.9	-0.6	5.4	-7.3
> S=C(Nc1ccccc1Cl)NC1CCCCCC1
  2.3	21.2	-10.5	-4.0	-0.8	0.0	3.5	-22.2
> CCC1CCCCN1C(=O)COC(=O)c1cc(=O)[nH]c2ccccc12 (stereo unspecified)
  -55.9	.	.	-3.3	.	1.0	-1.2	2.2
> c1cncc(Nc2nc(-c3cccnc3)cs2)c1
  4.4	0.8	29.0	-10.0	2.6	0.8	-2.4	-33.6
> O=S(=O)(c1ccc(NCC2CCCCC2)nc1)N1CCOCC1
  2.6	-23.1	9.1	1.6	-5.3	1.7	1.6	4.6
> O=C(CN1C(=O)NC2(CCCc3ccccc32)C1=O)NCCc1ccc(F)cc1 (stereo unspecified)
  1.7	.	.	-1.1	.	0.4	3.3	8.2
> O=C(COc1ccccc1F)NNC(=O)c1cccc(-n2cccc2)c1
  4.2	-0.3	6.2	-7.1	?	1.0	6.4	9.7
> Cn1cc(CN2CC3C[C@@H]4CC2C[C@H](C3)C4)c(-c2ccc3c(c2)OCCO3)n1
  0.4	-13.1	12.6	-3.5	-1.9	0.4	-2.8	2.3
> Cc1ccc(-n2nc(C)c(NC(=O)COC(=O)c3ccccc3NCCO)c2C)cc1
  i	-5.4	3.7	-1.3	-2.1	0.1	1.9	0.0
> CCOC(=O)CN(C(=O)CSc1nnc(CNc2ccc(F)cc2)n1CC)c1ccc(F)cc1
  1.3	-5.5	4.0	-4.0	3.2	0.3	-9.7	7.3
> O=C(CSc1n[nH]c(-c2ccccc2)n1)Nc1ccc(F)cc1F
  5.9	11.8	-2.0	-2.3	-1.7	-0.1	-11.5	10.4
> Cc1ccc(C2/C(=C(\O)c3ccc4c(c3)OCCO4)C(=O)C(=O)N2CC2CCCO2)cc1 (stereo unspecified)
  10.3	-4.6	.	-1.2	.	1.1	3.0	8.3
> CCOC(=O)N1CCN(C(=O)COC(=O)c2ccccc2NCCO)CC1
  i	1.1	-7.7	-8.1	2.4	1.5	-6.4	4.6
> CC(C)(C)[C@H]1C=C(C(=O)N2CCOCC2)O[C@@H](OCc2ccc(CO)cc2)C1
  2.6	-10.6	-3.4	-0.9	-0.9	0.3	-0.1	-0.8
> Cc1ccc(CNC(=O)CSc2nc3c(sc4ccccc43)c(=O)n2CCCN2CCCC2)cc1
  -2.5	-3.2	63.7*	-1.8	-1.6	-0.1	-0.8	17.6
> CCCN(CCC)C(=O)Cn1c(=O)n(CCC(=O)NCCc2ccccc2)c(=O)c2ccccc21
  0.2	8.4	-4.6	.	5.1	0.0	4.8	-1.1
> O=C(/C(=C/O)N=Nc1ccccc1)c1ccc(Cl)cc1
  2.5	3.5	-30.1	27.4	-2.7	-0.2	-2.3	19.9
> Cc1ccc2cc(CN(CCO)Cc3nnnn3Cc3ccc(F)cc3)c(=O)[nH]c2c1
  0.4	-7.1	9.8	-4.5	4.6	0.7	0.9	-6.3
> Cc1ccc(NC(=O)N2CCN(c3ncccc3C(F)(F)F)CC2)cc1
  2.4	14.7	14.1	4.6	-11.7	0.2	2.1	11.2
> O=C(Cn1c(=O)n(CC2CCCO2)c(=O)c2ccccc21)c1ccc(Cl)c(Cl)c1 (stereo unspecified)
  -0.6	9.1	15.9	0.0	-0.4	0.3	2.1	-8.4
> CCOC(=O)c1ccc(NC(=O)c2sc3nc(N4CCOCC4)c4c(c3c2N)CCCC4)cc1
  -401.1	?	20.3	-2.5	0.9	-0.6	-2.7	11.6
> CC(C)COc1cccc(C(=O)N(CC(=O)Nc2ccccc2C(F)(F)F)Cc2ccco2)c1
  4.2	.	.	1.9	.	1.5	-3.0	-4.0
> CN(C)c1nc(NS(=O)(=O)c2ccc(Cl)cc2)nc(N(C)C)n1
  2.2	?	-19.6	-1.7	-1.9	-0.7	-1.3	3.7
> CCO[C@@H]1OC(C(=O)N2CCOCC2)=C[C@H](c2cn(C(C)=O)c3ccccc23)[C@H]1CCCO
  0.5	0.0	9.0	-3.2	4.1	0.1	-0.7	0.3
> COc1ccc(NC(=O)n2ncc3c(C)cccc32)cc1
  1.0	-4.5	-4.2	-0.4	1.9	-3.1	0.5	-4.8
> CN(Cc1cccc2cnccc12)C(=O)c1cc(COc2ccc(F)cc2F)on1
  0.9	-6.9	37.6	.	-1.0	.	.	-6.4
> Cc1ccc2nc3c(c(Nc4ccc(O)cc4)c2c1)CCC3
  .	.	62.3*	9.0	-3.3	0.6	-3.8	6.3
> COc1ccc(Br)cc1S(=O)(=O)NCCc1cccs1
  5.9	.	.	-7.9	.	-0.2	3.4	2.5
> CCCC1(c2ccccc2)NC(=O)N(CC(=O)Nc2sc(-c3ccccc3)cc2C(=O)OCC)C1=O (stereo unspecified)
  -7.2	9.1	34.4	-4.2	-1.7	0.7	-4.5	-9.0
> CCC(NC(=S)NC1CCCCC1)c1ccc(C(C)C)cc1 (stereo unspecified)
  .	-21.2	38.0	34.0	-2.9	-0.1	2.7	4.0
> Cc1ccc(C(C(=O)NC2CCCCC2)N(C(=O)Cc2c[nH]c3ccccc23)c2ccccc2)o1 (stereo unspecified)
  3.2	-17.5	55.6*	7.9	10.5	-0.8	-7.6	6.6
> O=[n+]1cc(-c2ccc(Cl)cc2)n([O-])c2c1CCC2
  2.5	0.7	8.4	.	0.5	2.3	3.7	-5.7
> Cc1cc(Br)ccc1NC(=O)CN(C)C(=O)CSCc1ccccc1
  4.8	-5.1	-0.8	3.0	2.1	0.0	1.0	3.0
> CC(=O)N(Cc1cccnc1)Cc1cc2ccc(C)cc2[nH]c1=O
  -2.9	1.9	0.0	-9.6	-2.2	0.6	-1.0	-1.0
> CCN(CC)S(=O)(=O)c1cccc(C(=O)Oc2cccc(NC(=O)c3cccs3)c2)c1
  5.9	-4.9	-8.6	-8.3	-0.3	-1.4	-2.0	9.5
> COc1cccc(/C=N/n2c(-c3ccco3)nc3ccccc3c2=O)c1
  .	-6.0	24.9	-1.8	1.3	-1.0	6.4	-8.5
> CN(CC(=O)Nc1cccnc1)S(=O)(=O)c1cc(Cl)ccc1Cl
  3.0	6.3	-5.8	-2.4	-4.3	0.0	0.4	-12.1
> COc1cccc(NC(=S)NC2CC3CCCC(C2)N3CC(C)C)c1 (stereo unspecified)
  0.9	9.1	-18.7	-4.7	-3.0	0.1	0.9	1.2
> COc1ccc(C2CC(C(F)(F)F)n3ncc(C(=O)Nc4cccc(O)c4)c3N2)cc1OC (stereo unspecified)
  3.2	0.5	10.8	3.4	-2.5	1.1	6.7	3.2
> Cn1cc(CCCC(=O)NCc2ccc(F)cc2)c2ccccc21
  2.1	2.0	-5.3	2.9	?	0.7	0.7	-2.2
> COc1ccc(C(C(=O)NC2CCCC2)N(Cc2cccnc2)C(=O)Cc2cccs2)c(OC)c1 (stereo unspecified)
  1.5	17.5	2.8	4.7	0.8	-0.7	-3.5	1.9
> N=C1/C(=C\c2ccc(OC(=O)c3ccccc3Cl)cc2)C(=O)N=C2SC(N3CCOCC3)=NN12
  9.3	27.5	-3.2	-6.4	0.6	0.5	-4.3	8.5
> Cc1c(OCC(=O)NCCCN2CCOCC2)ccc2c3c(c(=O)oc12)CCC3
  -20.1	-3.1	17.9	3.7	-0.3	0.3	-1.0	-4.6
> Cc1no[n+]([O-])c1COc1ccc(/C=C(\C#N)C(N)=O)cc1
  4.2	2.0	-8.2	-12.3	1.2	-0.4	-1.6	-2.1
> Cc1ccc(CSc2nn3c(=O)c(C)nnc3s2)cc1
  4.0	-14.1	3.9	-1.4	-2.2	2.6	0.1	-7.1
> COc1ccc(-n2c(SCC(=O)Nc3cc(C)on3)nc3ccccc3c2=O)cc1Cl
  1.4	-13.5	10.1	7.8	-1.2	1.3	-0.7	-1.9
> Cc1cccc(-n2nnnc2SCC(=O)N(CC(C)C)c2c(N)n(CC(C)C)c(=O)[nH]c2=O)c1
  3.1	0.2	8.2	-9.2	2.0	-1.4	-1.4	3.0
> COc1ccc(Oc2ccc(N/C=C3/CCCC3=O)cc2)cc1
  2.6	-16.6	-10.0	5.4	2.6	-1.0	.	-44.3
> O=S(=O)(NN1CCOCC1)c1ccc(Br)s1
  -0.9	4.4	0.9	-2.9	2.1	0.0	-8.0	-4.3
> O=C(COC(=O)c1nc(Cl)ccc1Cl)c1ccc(Cl)s1
  6.3	-19.7	-15.5	-8.7	0.1	-0.5	11.6	3.1
> NC(=O)NC(CC(=O)NCCc1ccccn1)c1ccccc1Cl (stereo unspecified)
  2.3	-30.0	0.6	4.8	2.5	-0.3	15.0*	-0.5
> O=S(=O)(c1cccs1)N1CN(Cc2ccco2)c2nc3ccccc3nc21
  -0.6	17.6	8.6	-2.5	2.7	0.0	12.2	-2.9
> CN(C)c1ccc(S(=O)(=O)N2CCCCC2)cc1NC(=O)C1CSC2(C)CCC(=O)N12 (stereo unspecified)
  0.1	.	.	-3.6	.	1.1	-1.6	0.4
> Fc1ccccc1NC(=S)NNc1ncc(C(F)(F)F)cc1Cl
  3.7	0.3	-4.2	65.6	4.4	-0.1	-1.4	6.7

(list continues)
Order of results – UCH37 DUB inh	Calb FLC	T cruzi inh	Beta apoptosis	RanGTP-Impb inh	Bfl-1 A1 inh	LANA-H2B inh	Beta2AR agonist
> COc1ccc(NC(=O)Nc2nnc(N3CCC(C)CC3)s2)cc1OC
  3.3	0.4	9.6	0.0	0.7	0.1	2.0	-2.2
> Cc1[nH]c2ccccc2c1C(=O)COC(=O)CCS(=O)(=O)c1ccccc1Cl
  3.1	1.0	-6.5	-1.8	-1.3	-0.8	-2.3	13.0
> COc1cccc(N2CCN(C(=O)c3cc4c(s3)CCCCC4)CC2)c1
  1.9	.	.	-1.5	.	-0.2	-0.4	18.8
> COc1ccc(C2C(C(C)=O)=C(O)C(=O)N2c2ccc(O)cc2)cc1 (stereo unspecified)
  6.5	-4.3	-4.2	-10.9	1.5	-0.4	-3.4	-4.8

Rows were taken by chance. Share with any hit: about 4.3%.
